Sfp inh: Sfp phosphopantetheinyl transferase inhibition | Q9F4F7 | Biochemical Sfp PPTase activity, qHTS | Potency, µM, for inactives: max response, negative = inhibition, hits mostly inhibitors | 310,000 compounds, 3.5% hits | AID 1490; active = well fitted inhibition curve with a large enough effect; inconclusive = small, poorly fitted or top-dose-only effect, or another doubt; inactive = no such curve, though single readings can be large or run the other way;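 also: the enzyme is Sfp with the accession as filed and its product quenches rhodamine fluorescence; potency is read from the fitted curve at half-maximal effect; 0% = enzyme reaction without inhibitor and -100% = no enzyme wells; top concentration of the series not given in the record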
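Compounds were incubated with enzyme (final 15 nM) for 15 min at room temperature before substrate addition started the reaction. Fluorescence at 525 nm excitation, 598 nm emission was recorded immediately and after 30 minutes.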
gsp antagonist: gsp mutant antagonism. 340,000 compounds, 0.4% hits. Potency, µM (series often up to 76.9 µM), without a hit: at the highest dose activity change, negative = inhibition, most hits filed as inhibitors. gsp-mutant cells, cAMP HTRF, 30 min; control for the full effect not named in the record; active = falling curve of any shape with a large fitted effect; inconclusive = falling curve, mostly with a smaller effect; inactive = flat or rising curve; cell line not stated here;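 also: intracellular cAMP measured with PDE inhibitor Ro 20-1724 present during compound exposure; potency is read from the fitted curve at half-maximal effect; % is scaled to controls: 0 for no effect and ±100 for the full control effect; nearly all actives have a fitted effect of over 65% in size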
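HTRF cAMP measurement after 30 min RT detection following 30 min, 37C compound treatment alongside […] (added as 300 uM solution) in G418-selected cells seeded at 2000/well and grown 16–24 h.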
ClpP mod: qHTS Assay for Activators of ClpP. ATP-dependent Clp protease proteolytic subunit (Bacillus subtilis (strain 168)), P80244. purified B. subtilis ClpP, FRET peptide cleavage, 20 min. Potency, µM (titrated, usually from 57.5 µM), for inactives: at the highest dose activity change, negative = active. 340,000 compounds, 1.9% hits; active = well fitted falling curve with a large enough effect; inconclusive = small, poorly fitted or top-dose-only effect; inactive = no such curve, though single readings can be large or run the other way; also: potency is read from the fitted curve at half-maximal effect; the source files actives as falling curves though it sought activators and does not explain the sign; nearly all actives have a fitted effect of over 65% in size; many hits overshoot -100%
Target sequence (P80244 whole entry, looked up): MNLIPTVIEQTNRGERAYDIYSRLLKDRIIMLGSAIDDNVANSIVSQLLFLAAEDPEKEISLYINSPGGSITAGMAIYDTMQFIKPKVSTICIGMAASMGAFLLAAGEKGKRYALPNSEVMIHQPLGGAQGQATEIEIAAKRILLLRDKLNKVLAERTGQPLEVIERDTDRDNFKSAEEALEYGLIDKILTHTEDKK
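Buffer: 100 mM Tris/HCl pH8, 100 mM KCl, 0.05% low protease BSA, 2.5% glycerol, 0.01% Tween-20. ClpP 10 microg/mL final; 20 min RT; delta FRET normalized to ADEP and DMSO controls.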
TRPV1 potentiator: potentiators of human vanilloid receptor 1 (TRPV1) | Q8NER1 | TRPV1-expressing cells, Fluo-8 calcium influx, capsaicin EC20 potentiation; host cell line not named in the record; control for the full effect not named in the record | potentiation, % at 8.33 µM | 320,000 compounds, 0.02% hits | AID 540277; active means potentiation above 80%; inconclusive means 30% to 80%; inactive means below 30%; also: 0% is about no effect
Target sequence (Q8NER1 whole entry, looked up): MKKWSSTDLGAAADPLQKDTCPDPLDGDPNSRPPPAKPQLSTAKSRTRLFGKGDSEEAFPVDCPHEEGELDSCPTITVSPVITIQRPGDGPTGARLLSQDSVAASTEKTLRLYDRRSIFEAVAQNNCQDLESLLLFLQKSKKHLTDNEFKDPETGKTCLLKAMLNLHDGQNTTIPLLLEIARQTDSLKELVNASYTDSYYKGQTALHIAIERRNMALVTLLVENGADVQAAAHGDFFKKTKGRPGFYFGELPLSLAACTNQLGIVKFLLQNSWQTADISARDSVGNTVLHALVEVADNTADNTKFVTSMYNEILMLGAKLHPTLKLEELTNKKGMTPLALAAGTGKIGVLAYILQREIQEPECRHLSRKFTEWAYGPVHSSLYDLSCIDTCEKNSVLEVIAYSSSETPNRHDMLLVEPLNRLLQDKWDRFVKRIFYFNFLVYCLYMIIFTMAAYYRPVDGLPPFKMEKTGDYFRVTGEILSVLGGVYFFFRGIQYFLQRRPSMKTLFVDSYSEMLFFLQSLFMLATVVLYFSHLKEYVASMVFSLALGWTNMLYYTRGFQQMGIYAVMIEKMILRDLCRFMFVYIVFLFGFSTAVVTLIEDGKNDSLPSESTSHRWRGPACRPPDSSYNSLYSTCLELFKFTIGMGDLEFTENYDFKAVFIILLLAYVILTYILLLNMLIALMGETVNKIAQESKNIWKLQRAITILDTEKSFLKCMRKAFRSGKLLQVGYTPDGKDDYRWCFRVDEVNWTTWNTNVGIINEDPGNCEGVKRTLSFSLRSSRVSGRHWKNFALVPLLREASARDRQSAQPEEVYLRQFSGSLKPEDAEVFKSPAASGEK
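TRPV1-expressing cells were cultured overnight at 35.5C and loaded with Fluo-8 calcium dye for 40 to 90 min at room temperature. After a 10 s baseline, compound was added and calcium influx was read kinetically for 3 min (ex 480/em 520 nm).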
D2 potentiator: human D2 receptor positive allosteric modulation; P14416; DiscoveRx D2 beta-arrestin cells, luminescence, 90 min; 100% = 57 uM dopamine signal; potentiation, % (concentration not given with the values); 360,000 compounds, 0.23% hits; AID 624464; active = potentiation of 50% or more; inconclusive = 30% to 50%; inactive = 30% or less;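 also: tested on top of an EC20 dose of dopamine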
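PathHunter D2 cells, attached overnight at 37 deg C, received compound in DMSO plus dopamine at EC20 (50 nM final) for 90 min at 37 deg C. Beta-arrestin recruitment was read as luminescence after 1 h with detection reagent at ambient temperature.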
gsp ag: gsp mutant agonism. gsp mutant cells, cAMP HTRF, 30 min; control for the full effect not named in the record. Potency, µM (highest dose often 76.9 µM), for the others: at the top dose activation (cAMP increase), usual class: activators. 340,000 compounds, 0.13% hits. AID 624287; active = well fitted activation curve with a large enough effect; inconclusive = small, poorly fitted or top-dose-only effect, or another doubt; inactive = no such curve, though single readings can be large or run the other way; cell line not stated here;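 also: phosphodiesterase inhibitor Ro 20-1724 added with compounds to block cAMP breakdown; potency is read from the fitted curve at half-maximal effect; nearly all actives have a fitted effect of over 60% in size; about a fifth of the inactives were tested at one dose only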
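Cells stably selected in G418 were plated at 2000/well, grown 16-24 hr, then given compounds in DMSO with the PDE inhibitor […] (300 uM solution added) for 30 min at 37C; cAMP was read by HTRF.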
Menin MLL FP FL: displaces fluorescein MLL peptide from human menin; FP activity change, % at 61.4 µM; 290,000 tested, under 10 active; Fluorescence polarization, fluorescein-MLL peptide displacement from menin; inconclusive = falling polarisation curve, or a change in total fluorescence; inactive = total fluorescence flat and polarisation flat or rising; no compound was filed as active; the % refers to the polarisation; negative = inhibition;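 also: % of control where 0% means no effect; inhibitors lower the polarisation; unlabelled MLL peptide was the positive control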
The depositor's hits bear a star; ? = inconclusive; · = not tested or not shown; & = joins results of further samples; [ ] = dose if it differs, or a comment. Outcome played no part in choosing rows; any-hit rate near 5.1%.

SMILES	Sfp inh	gsp antagonist	ClpP mod	TRPV1 potentiator	D2 potentiator	gsp ag	Menin MLL FP FL
CC(C)(C)OC(=O)C[C@@H]1C/C=C\C[C@@H](CC(=O)N[C@H](CO)Cc2ccccc2)C(=O)N2CCC[C@H]2COC1=O	·	-3%	0.6%	·	23	·	·
C/C(=N\NC(N)=S)c1cccnc1	?	6%	·	3	-3	?	-0.2
COc1cc(CNCCCN2CCOCC2)c(Br)cc1OC(C)C	17%	2%	1.4%	1	-27	4%[15.4 µM]	-7.0
CCOc1ccc(CCNC(=O)Cc2ccc(NC3=NC4CS(=O)(=O)CC4S3)cc2)cc1OCC (stereo unspecified)	11%	10%	-1.4%	0	-9	28%	·
Cc1cc(C)n2nc(C(=O)N/N=C/C=C/c3ccccc3)nc2n1	14%	-4%	-11%	8	-11	-13%	3.1
COC(=O)C1=C(C)N(Cc2ccc(OC)c(OC)c2)C(=O)C1	8%	-5%	1.5%	-5	15	-15%	0.6
N#CCSc1nc2ccccc2c(=O)n1CCCC(=O)NCc1ccco1	7%	2%	-1.4%	16	-6	19%[15.4 µM]	0.1
Cc1nc(NC(=O)c2cccc(Cl)c2)sc1-c1csc(Nc2cccc(Cl)c2)n1	-3%	·	·	0	·	·	2.6
Cc1ccc2cc(/C=N/NC(=O)c3ccc(F)cc3)c(Cl)nc2c1	-1%	-10%	-0.5%	22	-14	-18%[15.4 µM]	-1.4
CN(C)CCCn1c(NCc2ccc3c(c2)OCO3)nc2ccccc21	4%	7%	1.3%	2	-24	-14%	-1.0
O=C(Nc1cccc2ccccc12)N1CCN(c2ccc(F)cc2)CC1	13%	3%	-25%	7	-6	?	-0.9
CC(=O)OC1CC[C@@]2(C)C(CCC3C2CC(=O)[C@@]2(C)C3CC3CC(C)=CC(=O)C32)C1 (stereo partly specified)	-20%	-11%	-0.9%	?	-13	-21%	5.7
O=[N+]([O-])c1cccc(C2Nc3cccc4cccc(c34)N2)c1	45µM*	-1%	-4.5%	18	105*	-31%[inhibitor]	4.6
CC(=O)OCC1OC(c2ccccc2)C(OC(C)=O)C(OC(C)=O)C1OC(C)=O (stereo unspecified)	-5%	5%	1.4%	-10	-3	-27%	4.2
O=C1c2ccccc2C(Nc2ccc(F)cc2F)N1CCN1CCOCC1 (stereo unspecified)	-14%	0%	0.3%	-17	-12	0%	-5.4
CCOC(=O)C(=O)C1C(=O)Nc2ccccc21 (stereo unspecified)	25µM*	-5%	-7.8%	-5	-26	-17%	3.5
CCOC(=O)c1ccc(COC(=O)CNC(=O)CNC(=O)c2ccc(OC)cc2)o1	2%	5%	-2.7%	14	0	-19%	0.8
O=C(NC(=S)N1CCCCC1c1cccnc1)c1ccccc1 (stereo unspecified)	-14%	3%	-0.1%	10	-3	-59%[inhibitor]	0.5
COc1ccc(-n2nnnc2SCC(=O)Nc2nnn(C)n2)cc1	8%	5%	-1.0%	1	3	-28%	2.7
O=C(c1cc2cc(Cl)ccc2o1)N1CCCC1	-8%	-4%	·	-2	2	2%[15.4 µM]	-0.1
Cn1c(CCNC(=O)C(C)(C)C)nc2ccccc21	21%	2%	0.5%	-5	6	-29%	-0.2
CC(C)N1C(=O)CCC1C(=O)O (stereo unspecified)	0%	-12%	1.4%	-3	-2	-6%[15.4 µM]	0.1
CC(C)CCc1noc(CN(C)CCC2CCOCC2)n1	-11%	7%	·	28	1	5%[15.4 µM]	2.1
Cc1cc(NC(=O)NCc2ccco2)ccc1NC(=O)NCc1ccco1	·	6%	·	·	-2	-46%[inhibitor]	·
O=C(CSc1nnc(CNC(=O)c2ccco2)o1)Nc1cccc(Cl)c1	11%	5%	0.4%	-2	-4	-7%	-2.3
CC1=C[C@H](C)[C@H](c2c(F)cccc2Cl)CC1=O	16%&-3%	7%	-2.4%	-15	5	·	3.4&-8.1
O=C(Nc1cccc(S(=O)(=O)N2CCCCC2)c1)[C@@H]1CCCN1S(=O)(=O)c1ccccc1C(F)(F)F	·	-20%	0.8%	·	2	-10%	·
CC(C)NC1CCC(Nc2ccnc3cc(Cl)ccc23)CC1 (stereo unspecified)	·	9%	·	·	-5	-4%	·
CC(O)Cc1cn([C@@H](CCCCNC(=O)OC(C)(C)C)C(=O)N2CCN(C(=O)OC(C)(C)C)CC2)nn1 (stereo partly specified)	14%	8%	-0.8%	-15	-7	·	0.2
COc1ccc(N2CCN(Cc3nnnn3C3CCCCC3)CC2)cc1	-2%	1%	·	-1	-4	-63%[inhibitor]	0.3
CCc1cccc(C)c1NC(=O)CCCn1c(=O)c2cccn2c2cccnc21	21%	15%	-6.1%&-22%	14	-4	0%	·
COc1cc(C(=O)N2CCN(C(=O)c3ccco3)CC2)c([N+](=O)[O-])cc1OC	25%	14%	-0.6%	22	-2	-33%[inhibitor]	-0.5
O=C(O)C1CCC(=O)N1Cc1ccc(F)cc1 (stereo unspecified)	9%	2%	-0.3%	2	-4	19%	2.7
Cc1c(N=C/C=C/c2ccccc2)cnn1C	?	3%[15.4 µM]	-1.6%	-7	25	-16%	-0.2
C=CCSC1=NNC(c2ccc(C(C)(C)C)cc2)=NN1	26%	7%	-0.3%	-29	-6	3%[15.4 µM]	-1.3
O=S(=O)(NC1=NCCCCC1)c1ccc(F)cc1	18%	0%	·	3	-3	15%[15.4 µM]	-0.3
CCN(CC)S(=O)(=O)c1ccc(OC(C)C)c(NC(=O)C2=COCCO2)c1	·	-13%	1.1%	-7	-15	12%	·
Cc1ccc(-c2nn(C)c(=O)c3ccccc23)cc1CNC(=O)/C=C/c1ccccc1	-10%	-16%	-25%	-11	-2	-22%	6.0
COc1cc(S(=O)(=O)NCc2ccccc2)ccc1F	11%	1%	-2.5%	2	7	-19%	-1.7
Cn1c(SCC#N)nnc1-c1ccc2c(c1)OCO2	14%	3%	8.7%	6	-3	16%	2.9
O=C(NC(=S)N(CC1CCC1)CC1CCCO1)c1cccc([N+](=O)[O-])c1 (stereo unspecified)	-2%	-6%	1.5%	17	-18	-112%[inhibitor]	-4.7
COCC(=O)N1CCC2CC1c1c(-c3ccc(C(F)(F)F)cc3)cccc12 (stereo unspecified)	·	0%	-1.2%	·	-5	·	·
CCOc1ccccc1NC(=O)C(NCCN(C)C)c1ccccc1 (stereo unspecified)	79µM*	11%	·	-39	-1	-20%[15.4 µM]	-4.3
COCCCn1nnnc1SCC(=O)N1CCN(C(=O)c2ccco2)CC1	6%	30%	-0.5%	-5	-2	-13%	-1.3
COc1ccc(OC)c(NC(=O)CSc2nnnn2-c2ccccc2F)c1	-17%	-2%	2.9%	-29	-10	-48%[inhibitor]	0.1
Cc1ccc(-n2nc3c(=O)n(C(C)C(=O)NCc4ccc(Cl)cc4)nc(C)c3c2C)cc1 (stereo unspecified)	-5%	?	-4.2%	8	-8	9%	-3.8
Cc1ccc(-c2nn(-c3ccccc3)cc2C(N)=O)o1	?	-8%	·	-3	-3	19%[15.4 µM]	7.5
Cc1c(C(=O)N2CC3(CC(c4cccc(NC(=O)[C@H]5CCC(=O)N5)c4)=NO3)C[C@@H]2C(N)=O)cc([N+](=O)[O-])cc1[N+](=O)[O-] (stereo partly specified)	15%	9%	0.3%	17	74*	·	3.8
N#CC1=C(N)Oc2cc(N)ccc2C1c1ccccc1Cl (stereo unspecified)	13%	-15%	-1.5%	4	3	-2%	1.7
Cc1ccc(-c2nn(Cc3ccccc3)cc2C(=O)NCC2CCCO2)cc1 (stereo unspecified)	·	-2%	-0.8%	-14	-12	-7%	·
CCCCc1nnc2c(N(C)S(=O)(=O)c3ccccc3)nc3ccccc3n12	8%	0%	·	0	-1	1%[15.4 µM]	0.1
O=C(COC(=O)CCC(=O)c1cccs1)Nc1ncc(Cl)cc1Cl	10%	-1%	0.9%	-8	-12	-1%	5.1
CSc1ncc(CN2CCN(CC=C(C)C)C(CCO)C2)cn1 (stereo unspecified)	20%	4%	·	0	-8	2%	1.9
COc1ccc(C(c2nnnn2C(C)(C)C)N2CCN(c3nc4ccccc4s3)CC2)cc1 (stereo unspecified)	9%	-18%	25µM*	4	-1	-50%[inhibitor]	2.7
COc1ccc(CCNC(=O)c2cc3c(=O)n4cccc(C)c4nc3n(Cc3ccco3)c2=N)cc1OC	-5%	-13%	·	-13	-2	1%[15.4 µM]	-0.8
CCOC(=O)NN1C(=O)c2ccccc2NC1c1ccccc1O (stereo unspecified)	0%	6%	25µM*	3	2	-1%	-5.4
CC1=C(C(=O)N2CCOCC2)CC(CC(=O)NCCCN(C)C)C(=O)N1CCC1=CCCCC1 (stereo unspecified)	·	·	0.4%	·	4	?	·
COc1ccc(NC(=O)CSc2nnc(-c3ccccc3C)n2N)cc1	-14%	4%	-0.4%	9	-4	10%	1.3
CC(=O)Nc1ccc(NC(=O)C(C)Sc2nc3ccccc3c(=O)n2Cc2ccco2)cc1 (stereo unspecified)	·	-4%	-1.2%	-11	7	8%[15.4 µM]	·
COc1cc(CNc2ccc(O)cc2)cc(Br)c1OCc1ccccc1	22µM*	?	-2.4%	5	8	-33%[inhibitor]	6.0

Retrieved one by one from the list above (three):
SMILES	Sfp inh	gsp antagonist	ClpP mod	TRPV1 potentiator	D2 potentiator	gsp ag	Menin MLL FP FL
CCCCc1nnc2c(N(C)S(=O)(=O)c3ccccc3)nc3ccccc3n12	8%	0%	·	0	-1	1%[15.4 µM]	0.1
COc1cc(CNc2ccc(O)cc2)cc(Br)c1OCc1ccccc1	22µM*	?	-2.4%	5	8	-33%[inhibitor]	6.0
COc1ccc(CCNC(=O)c2cc3c(=O)n4cccc(C)c4nc3n(Cc3ccco3)c2=N)cc1OC	-5%	-13%	·	-13	-2	1%[15.4 µM]	-0.8

The list continues:
SMILES	Sfp inh	gsp antagonist	ClpP mod	TRPV1 potentiator	D2 potentiator	gsp ag	Menin MLL FP FL
CCn1c(=NC(=O)c2ccc(N3C(=O)CCC3=O)cc2)sc2c(OC)ccc(OC)c21	-20%	-1%	43%	-2	-1	-3%	6.6
O=C1CC(N2CCN(c3ccc(F)cc3)CC2)C(=O)N1Cc1ccccc1 (stereo unspecified)	9%	6%	·	-6	-3	-15%	-0.3
CCOc1ccc(-c2nc(CN(Cc3ccccc3)C[C@@H]3CCC(=O)N3)c(C)o2)cc1	79µM*	3%	·	8	-13	?	5.4
CC(C)(C)NC(=O)C(=O)NN=C1CCCCCCC1	4%	12%	·	8	-6	4%	-5.3
